Screens deposited in PubChem by several laboratories.
LANA-H2B inh: blocks KSHV LANA binding to histone H2A/H2B; cell-free LANA-H2A/H2B peptide, fluorescence polarization; AID 2629; 0.6% of 320,000 active; inhibition, % (test concentration not listed); in the data active = inhibition mostly above about 10%, no sharp cut-off; inactive = mostly below about 6.7%;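 note: stock transfer was 7.5 nL into about 10 µL; 0% = median of vehicle wells and 100% = median of positive control wells; one replicate is shown; the record names a cut of 25% in any replicate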
Ecoli growth: blocks Escherichia coli growth; OD600, 23 h; stronger effect = lower value; OD600 absorbance (test concentration not listed); 0.21% of 330,000 active;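 active = OD600 absorbance below the run mean of sample wells minus 3.6 SD, in any replicate, cut at about 0.56 in these data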;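 note: stock transfer was 300 nL into about 60 µL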
UCH37 DUB inh: inhibitors of human deubiquitinating enzyme UCH37 | inhibition, % (concentration not given with the values) | Q9Y5K5 | 0.33% of 330,000 active | purified proteasome/UCH37, Ub-AMC cleavage fluorescence;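 active = mean of two replicates above 20%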;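 note: 0% = compound-free wells with enzyme and 100% = wells lacking proteasome; stock transfer was 100 nL into about 20 µL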
Target sequence (Q9Y5K5 whole entry, looked up): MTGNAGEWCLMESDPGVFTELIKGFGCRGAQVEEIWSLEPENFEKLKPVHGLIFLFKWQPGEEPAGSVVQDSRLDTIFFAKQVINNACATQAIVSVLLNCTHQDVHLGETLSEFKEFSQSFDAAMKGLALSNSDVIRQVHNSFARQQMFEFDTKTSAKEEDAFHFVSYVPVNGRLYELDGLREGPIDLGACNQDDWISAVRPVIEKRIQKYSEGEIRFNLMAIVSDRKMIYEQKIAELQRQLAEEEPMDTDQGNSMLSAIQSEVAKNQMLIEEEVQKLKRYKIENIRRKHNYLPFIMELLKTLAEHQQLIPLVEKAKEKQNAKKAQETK
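Material: human UCH37 enzyme supplied as purified proteasome complex. Measure: % inhibition of Ub-AMC cleavage fluorescence. Medium: pH 7.4 Tris-HCl (50 mM) with ovalbumin, ATP-MgCl2, DTT. Times: 30 min preincubation with enzyme, 25 min cleavage at room temperature. Detection: AMC fluorescence intensity at 355/460 nm.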
Beta2AR agonist: human beta-2 adrenergic receptor agonism by FAP; 0.43% of 340,000 active; response, % (no concentration beside the values); Am2.2-beta2AR cells, FAP receptor internalization, flow cytometry; reference of the scale not given here; AID 504454; P07550;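 active = response above a set limit, near 3 SD of response in nonfluorescent compounds, cut at about 42% in these data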;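 note: stock transfer was 100 nL into about 11 µL; a reference agonist was the positive control; negative values mostly stem from fluorescent compounds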
Target sequence (P07550 whole entry, looked up): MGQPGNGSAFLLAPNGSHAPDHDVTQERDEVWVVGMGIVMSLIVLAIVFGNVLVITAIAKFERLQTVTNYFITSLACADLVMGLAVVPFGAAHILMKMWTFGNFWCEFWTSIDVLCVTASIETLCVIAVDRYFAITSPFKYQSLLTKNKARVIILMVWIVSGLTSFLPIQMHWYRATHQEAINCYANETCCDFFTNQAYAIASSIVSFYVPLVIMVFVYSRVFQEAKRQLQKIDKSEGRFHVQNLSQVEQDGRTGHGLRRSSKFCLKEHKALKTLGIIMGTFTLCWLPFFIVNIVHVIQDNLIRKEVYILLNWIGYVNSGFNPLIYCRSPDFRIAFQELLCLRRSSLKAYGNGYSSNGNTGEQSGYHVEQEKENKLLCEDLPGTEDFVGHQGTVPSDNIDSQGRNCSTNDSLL
Bfl-1 A1 inh: inhibitors of the anti-apoptotic protein A1, read as caspase activation. MEF A1-2A-BIM cells, Caspase-Glo 3/7 luminescence, 3 h; percent of clofoctol response, vehicle zero. caspase activation, % (concentration not given with the values). 0.066% of 330,000 active;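 active = over half of replicate activation scores above 10%, or exactly half above 10 with the replicate mean above 10; inconclusive = replicate mean below 10 yet half the replicates above 10; inactive = over half of replicates below 10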;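 note: wells of about 30 µL received 50 nL stock; many hits fall short of the cut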
Vif A3G: HIV-1 Vif–A3G interaction blockers – biochemical, TR-FRET, GST-Vif 1-94, biotin-A3G peptide, dose response retest, primary screen (AID 1117319) | TR-FRET GST-Vif / biotin-A3G peptide binding; higher % means a stronger effect; test concentration not given here; strong numbers were not always called active | 0.57% of 260,000 active | one-dose inhibition, %; IC50 in µM for titrated hits;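 active = above the screen mean plus three standard deviations and confirmed in dose response; inconclusive = results disagree or hit not tested in dose response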;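 note: Vif residues 1-94 fused to GST binding biotinylated APOBEC3G peptide 110-148; 0% = full assay without inhibitor and 100% = GST in place of GST-Vif; retest series ran down from 100 µM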
HNF4A DNA FP: change in binding of human HNF4 alpha to DNA; P41235; HNF4a-FITC DNA binding, fluorescence polarization, 1 h; activity change, % at 10 µM; 0.3% of 360,000 active; AID 1224865; in the data active = activity change above about 30%, passing the limit was not always enough;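 note: controls were the assay level and a saturating level of protein; the project sought stronger binding though the title names inhibitors; some compounds called inactive have numbers as strong as hits; positive values seem to mean higher polarization but the record does not say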
The depositor's hits bear a star; ? = inconclusive; nt = no result given.

SMILES	LANA-H2B inh	Ecoli growth	UCH37 DUB inh	Beta2AR agonist	Bfl-1 A1 inh	Vif A3G	HNF4A DNA FP
Cc1ccc(NS(=O)(=O)c2cccc(C(=O)Nc3c(C)n(C)n(-c4ccccc4)c3=O)c2)cc1	-1.2	0.69	-1.6	nt	-0.4	2%	nt
Cc1c(S(=O)(=O)c2ccccn2)c(N)n(Cc2ccccc2)c1C	-0.7	nt	nt	13	0.9	11%	11
COCCCNC(=O)CCNS(=O)(=O)c1ccc(C)cc1	-5.0	0.74	1.6	4	0.3	23%	2.5
CC(NC(=S)Nc1ccccc1)C1COc2ccccc2O1 (stereo not drawn)	0.1	0.67	0.8	-9	-0.2	-8%	-4.3
COC(=O)c1ccc(/C=C(\C#N)c2nc3ccccc3s2)cc1	4.8	0.76	1.5	5	-0.4	?	-1.5
Fc1ccc(CSc2nnc(CN3CCOCC3)n2-c2ccccc2)c(Cl)c1	-0.4	0.72	0.9	-1	-0.2	6%	-1.3
CCOC(=O)N1CCN(C(=O)C2CCN(S(=O)(=O)CC)CC2)CC1	1.3	0.7	2.6	6	1.0	5%	-4.0
C(=C\n1nnc2ccccc21)/c1ccc[nH]1	3.5	0.8	4.9	0	-0.2	nt	29
C=CCc1ccccc1OCCn1ccnc1	4.9	0.69	6.5	3	-0.6	0%	0.7
CCn1cc(C(=O)NCc2cccnc2)c2cc(OC)c(OC)cc2c1=O	9.0	0.69	1.5	0	?	4%	0.9
NC(=O)c1cc2cc(Cl)ccc2o/c1=N/NC(=O)c1cccs1	-5.2	nt	nt	-18	0.2	-2%	0.2
CN(C)C(=O)/C(=C\c1cccc(Oc2ccccc2)c1)NC(=O)c1ccccc1	-6.7	nt	2.0	-23	0.4	5%	5.3
Cc1ccc(C(=O)CSc2n[nH]c(C)n2)cc1	-1.0	0.66	2.0	6	-0.6	-6%	-2.6
CCCCn1c(N)c(N(CCC(C)C)C(=O)C2CCN(C(=O)c3ccccc3C)CC2)c(=O)[nH]c1=O	1.2	0.7	3.5	4	0.9	4%	-2.4
C/C(CC(=O)Nc1cccc(C(F)(F)F)c1)=N\NC(=O)C(=O)NCC(C)C	3.0	nt	nt	-7	0.0	-13%	0.5
Cc1cccc(C(=O)Nc2ccc(O)c3c(=O)cc(-c4ccccc4Cl)oc23)c1	-6.7	0.69	-1.0	-16	0.2	-3%	-0.5
O=C(Nc1ccncc1)c1ccc(S(=O)(=O)Nc2ccccc2)cc1	0.0	0.65	-0.8	-1	-0.5	-7%	1.2
NNC(=S)Nc1cccc(Cl)c1	-4.6	0.69	-2.1	-7	0.2	5%	-0.9
O=C1OC=NC1=Cc1ccccc1	nt	nt	nt	7	nt	3%	3.8
CC(=O)Nc1nc(-c2ccccc2)c(-c2ccccc2)o1	-7.7	0.69	4.2	-19	-0.6	2%	-1.0
O=C(Nc1cccc(Cl)c1N1CCCC1)c1ccc([N+](=O)[O-])o1	8.1	0.69	-0.1	-2	-0.2	0%	0.2
COc1ccc(CNC(=O)c2sc3nc4c(c(C(F)(F)F)c3c2N)CCC4)cc1OC	-2.8	0.69	1.2	-5	0.4	69%	2.9
COc1ccc(CCNC(=O)CSc2nc3c(c(=O)n(C)c(=O)n3C)n2C(C)C)cc1OC	-7.4	0.66	0.8	1	-0.5	-2%	2.5
Cn1c(SCCC#N)nnc1-c1ccc(F)cc1	0.0	0.71	5.0	-7	0.8	11%	2.1
COc1ccccc1NC(=O)COC(=O)[C@@H]1CCCN1C(=O)c1cccs1	3.7	0.75	1.6	1	1.1	8%	-1.8
c1ccc2c(c1)CC(N1CCCCC1)c1ccccc1N2 (stereo not drawn)	4.1	0.73	0.6	-3	0.7	9%	-2.3
CCOc1ccccc1C(=O)NC(CO)C(=O)O (stereo not drawn)	-0.6	0.68	3.3	7	1.6	3%	3.9
O=C(NCc1ccccn1)c1cc(-c2ccncc2)nc2ccccc12	-1.3	0.7	-5.2	0	1.0	0%	-2.4
CC(C)(C)NC(=O)NC(=O)COC(=O)CNS(=O)(=O)c1ccc(Br)cc1Cl	6.6	0.7	0.5	-3	0.6	nt	-3.1
CCOC(=O)c1ccccc1NC(=O)CSc1ncc(C(=O)OCC)c(N)n1	-1.3	0.7	1.4	6	0.4	-10%	-0.7
CCCc1cc(=O)[nH]c(SCC(=O)Nc2cc(C)on2)n1	6.5	0.65	-0.3	-4	0.5	-1%	-1.9
Nc1nc(SCCO)[nH]c(=O)c1NC(=O)c1ccco1	nt	0.68	2.4	0	-0.6	-11%	-0.8
CC1Oc2ccccc2N(CC(=O)NC2CC2)C1=O (stereo not drawn)	-2.3	0.69	-0.3	3	-0.5	nt	2.6
CCNC(=O)N1CCC(n2nccc2NC(=O)CCOc2ccccc2)CC1	-2.8	0.7	0.3	7	0.4	-8%	1.1
COc1ccc(C(=O)NC(C)CCc2ccccc2)c(O)c1 (stereo not drawn)	3.3	0.65	3.5	-6	0.0	-10%	0.2
CCc1c(C)sc(NC(=S)NC(C)C2CCCO2)c1C(=O)OC (stereo not drawn)	-2.7	0.7	1.0	0	0.3	-20%	7.9
O=C(CN(C(=O)c1csnn1)c1ccccc1Cl)NCCc1ccccc1	2.0	0.61	0.6	0	0.1	nt	-3.3
O=C(CN(Cc1cccs1)C(=O)CNS(=O)(=O)c1ccc(Cl)cc1)NCc1ccco1	0.2	0.67	6.4	-2	0.6	32%	11
CC(C)Cn1c(-c2ccncc2)n[nH]c1=S	-6.9	0.71	3.2	-5	-0.8	-5%	2.4
O=c1c2nnn(Cc3ccccc3)c2ncn1-c1ccccc1	4.6	0.7	1.0	3	1.4	0%	-3.8
O=C(NCCc1ccccc1)c1cc(-c2ccccc2)c(N2CCOCC2)s1	3.5	0.69	-0.8	-4	0.0	10%	-4.3
COc1ccc(CNC(=O)N2CCN(c3ccc(F)cc3)CC2)cc1Cl	3.5	0.63	-0.5	-1	-0.1	0%	-0.7
Cc1cnc(C(=O)OCC(=O)Nc2cc(S(=O)(=O)N3CCCCC3)ccc2Cl)cn1	-0.6	0.7	2.4	2	0.8	nt	6.5
CCN(CC)S(=O)(=O)c1ccc(N2CCOCC2)c(NC(=O)c2nn(C)c(=O)c3ccccc23)c1	nt	0.74	3.1	1	nt	nt	2.3
CC(C)OC(=O)NCCOC(=O)Nc1ccc(Cl)c(Cl)c1	1.9	0.69	5.3	3	0.1	-5%	-1.5
CCCOc1ccc(CSC(=N)N)cc1C(=O)OC	0.7	0.65	2.7	8	0.0	-14%	3.0
Cc1ccc(NC(=S)Nc2cccc3cnccc23)cc1C	0.2	0.69	0.1	9	0.1	nt	6.3
O=C(Nc1cccnc1Cl)c1cc([N+](=O)[O-])ccc1Cl	2.9	0.69	0.0	-1	-0.7	-4%	1.6
COc1cc(OC)cc(-n2nc(C(=O)NCCCN3CCOCC3)c3ccccc3c2=O)c1	-2.4	0.76	4.6	5	0.1	19%	-4.5
Cc1ccc(C(=O)C(=S)N2CCOCC2)cc1	0.7	0.7	3.4	6	-0.1	0%	-5.4
Nc1sc2c(c1C(=O)NCCc1ccccc1)CCC2	-0.9	0.71	0.3	13	0.8	29%	3.4
Cc1ccc(Cl)cc1N1CCN(C(=O)c2ccccc2SCC(=O)N2CCCC2)CC1	nt	0.67	-0.5	-1	nt	3%	3.7
N#Cc1cc(-c2ccccc2)nc(NN)n1	0.2	0.69	8.0	0	1.0	12%	-1.4
Cc1ccc(-n2c(CNC(=O)c3cccs3)nnc2SCC(=O)NO)cc1	0.1	0.68	2.4	2	-1.0	4%	1.3
Cc1ccc(-c2cnc(N)n2C)cc1C	2.6	0.67	3.5	7	0.0	-1%	-0.5
NC(=O)NCc1ccccc1F	-2.3	0.7	0.6	2	1.6	-8%	-1.5
O=S1(=O)[C@H]2C[C@@H]3C=C[C@@]2(CN1Cc1ccc(F)cc1)O3	-1.8	nt	-0.5	3	0.2	nt	-5.4
O=C1c2c(O)cc(O)cc2O[C@H](c2ccc(O)cc2)[C@H]1O	0.0	0.7	6.8	-2	-0.3	nt	0.1
O=C(Nc1cc([N+](=O)[O-])ccc1F)c1ccc2ccccc2c1	2.7	0.63	1.8	0	0.1	-5%	0.5
CCN1CCN(CC(=O)N2N=C(c3cccs3)CC2c2ccc(OC)c(OC)c2)C(=O)C1=O (stereo not drawn)	-1.8	0.72	-6.7	-3	0.0	nt	-1.3

Record cards, from the list above. Order of screens: LANA-H2B inh, Ecoli growth, UCH37 DUB inh, Beta2AR agonist, Bfl-1 A1 inh, Vif A3G, HNF4A DNA FP
Shown for `O=S1(=O)[C@H]2C[C@@H]3C=C[C@@]2(CN1Cc1ccc(F)cc1)O3` : -1.8, nt, -0.5, 3, 0.2, nt, -5.4
Shown for `N#Cc1cc(-c2ccccc2)nc(NN)n1` : 0.2, 0.69, 8.0, 0, 1.0, 12%, -1.4

Continuation:
SMILES	LANA-H2B inh	Ecoli growth	UCH37 DUB inh	Beta2AR agonist	Bfl-1 A1 inh	Vif A3G	HNF4A DNA FP
Cc1ccc(CNC(=O)CCc2nc(-c3cccs3)no2)cc1	-2.0	0.7	1.8	-2	0.0	-1%	-4.5
Cc1ccccc1-c1ccc(=O)n(CC(=O)Nc2ccc(N3CCOCC3)cc2)n1	0.5	0.74	3.4	2	-0.9	3%	1.8
O=C(Nc1nc(-c2ccccc2)cs1)Nc1ccc(F)cc1F	-2.1	0.73	3.3	0	-1.6	5%	-4.1
NS(=O)(=O)c1cc(C(=O)OCC(=O)NC2CC2)ccc1Cl	-1.2	0.68	1.0	0	-0.1	-1%	-4.5
COc1cccc(NC(=O)c2ccc3c(c2)N(C)CCS3)c1	-3.9	0.63	-23	8	-8.3	nt	2.5
CCOc1ccc(NC(=O)C/C(C)=N/NC(=O)Cc2cccs2)cc1	2.8	nt	nt	3	0.0	nt	-0.3
COC(=O)c1cc(OC)c(OC)cc1NC(=O)c1ccco1	-4.8	0.75	-1.2	-6	-0.6	66%	1.8
COc1ccccc1NS(=O)(=O)c1cc(C(=O)NCC(C)(C)N2CCOCC2)ccc1C	-1.5	0.6	0.8	-2	1.2	-6%	-0.1
Cc1cccc(-n2ncc3c2CCCC3NC(=O)CN2CCCC2=O)c1C (stereo not drawn)	-2.4	0.63	2.9	3	-0.8	nt	-3.4
O=C(NNc1ccccc1F)c1ccccc1	-5.3	0.68	2.9	-1	-0.3	-8%	3.6
Oc1ccc(Br)cc1-c1cc(-c2ccco2)[nH]n1	-3.1	0.72	3.8	2	1.1	22%	6.5
CCNC(=O)CN(c1ccc(Br)c(C)c1)S(C)(=O)=O	-3.1	0.68	6.2	0	3.9	nt	3.5
O=[N+]([O-])c1ccc(N/N=C/c2ccc(OCc3cccc4ccccc34)cc2)nc1	5.4	nt	nt	7	-0.2	17%	35*
CC(C)CC(=O)Nc1nnc(SCC(=O)Nc2nccs2)s1	-5.2	0.66	3.1	-1	0.1	nt	-1.7
CCC(C)(C)NC(=O)C(c1cccc(OC)c1OC)N(CC(C)C)C(=O)CCC(=O)Nc1cc(C)on1 (stereo not drawn)	3.2	0.67	3.4	-1	0.5	-1%	-2.6
Cc1ccc2oc(C(=O)N3CCN(CCO)CC3)c(C)c2c1	-4.1	0.65	2.7	4	0.1	nt	-2.3
Cc1cccc(CS(=O)(=O)Cc2ccc(C(=O)NC3CCCC3)o2)c1	1.0	0.69	0.5	-2	-0.1	2%	4.8
COc1ccccc1CCNC(=O)c1ccc2nc[nH]c2c1	-0.4	0.73	4.0	4	-0.7	10%	-4.5
NC(=O)C1CCCN(Cc2ccc(Cl)cc2)C1 (stereo not drawn)	7.2	0.68	2.2	-17	0.3	-1%	-0.7
CCOCCn1cnc2sc(C(=O)NCCCN3CCOCC3)c(C)c2c1=O	5.2	0.66	2.8	-4	-1.4	nt	-3.4
